Biofilm kill mix: clotrimazole potentiators killing C. albicans biofilm, primary screen, 4-compound mixtures; C. albicans biofilm persisters + clotrimazole, fluorescence viability; primary screen in compound mixtures of four per well; inhibition, % at 7.6 µM; 120,000 compounds, 0.02% hits;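 active = inhibition above 30.3% in the primary screen of four-compound pools, then above 30% when the compound was retested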;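 also: compounds exposed to preformed 24 h biofilms for 48 h; the number belongs to the whole pool; some results filed as inactive read as strong as hits; inactives centre near 12; 0% = biofilm with clotrimazole alone and 100% = kill control; retested singly at about 60 µM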
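System: C. albicans CAF4-2 wild-type biofilms; Medium: RPMI/MOPS medium, pH 7.0; Reagent: Clotrimazole, 50 µg/mL; Times: biofilm formation 24 h, compound exposure 48 h, 37 °C; Detection: 2-h Alamar Blue fluorescence, 535/590 nm excitation/emission; Evaluation: percent inhibition of biofilm viability.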
Starred values were filed as active, the others as inactive. This is a subset; count on the stated rates, not on these rows.

Screening CC(OC(=O)CNC(=O)c1ccccc1F)C(=O)Nc1nc(-c2ccccc2)cs1 (configuration not stated) returned Biofilm kill mix 9.
`COc1cc([N+](=O)[O-])cc2cc(C(=O)N3CCCC3)c(=O)oc12` gave Biofilm kill mix 5.
COc1cc(/C=C2/C(=O)NN(c3cccc(C)c3)C2=O)cc([N+](=O)[O-])c1O was read as Biofilm kill mix 7.
`CSc1nc(SC(C)C(=O)O)c2c3c(sc2n1)COC(C)(C)C3` (configuration not stated) gave Biofilm kill mix 26.
Cc1cccc(Nc2nc(N)nc(CC(=O)CSc3ccc(Cl)cc3)n2)c1 was read as Biofilm kill mix 12.
Screening Cc1ccc(/C=C/C(=O)N2CCN(c3ccc(F)cc3)CC2)o1 returned Biofilm kill mix 18.
CCn1c(-c2nn(-c3ccccc3)ccc2=O)n[nH]c1=S was read as Biofilm kill mix 3.
Screening COc1ccc(CNC(=O)c2cc3c(s2)CN(Cc2ccccc2)C3)cc1 returned Biofilm kill mix 18.
Screening O=C(NCCCO)/C(=C\C=C\c1ccccc1)NC(=O)c1ccccc1Cl returned Biofilm kill mix 18.
CC(=O)Nc1ccc(-c2csc(N/N=C(/C)c3ccccc3)n2)cc1 was read as Biofilm kill mix 17.
`CN(C)CCCN(C(=O)COc1ccc(Cl)cc1)c1nc2ccc(F)cc2s1` gave Biofilm kill mix 7.
For CN(C)CCCNc1ccc(-c2cc(Nc3cccc(Cl)c3)ncn2)cn1 the results were Biofilm kill mix 16.
For COc1ccc(CC(=O)n2[nH]c(=O)cc(C)c2=O)cc1OC the results were Biofilm kill mix 22.
Screening CS(=O)(=O)N(Cc1ccc(Cl)cc1)c1ccc(C(=O)NCc2ccccn2)cc1 returned Biofilm kill mix 17.
Screening O=C(NC1CC1)C1=C[C@@H](c2c[nH]c3ccccc23)C[C@@H](OCc2ccc(CO)cc2)O1 returned Biofilm kill mix 16.
Screening CCOC(=O)CSc1n[nH]c(NC(=O)CC)n1 returned Biofilm kill mix 12.
`COc1ccccc1NC(=S)N1CCC(NC(=O)C23CC4CC(CC(C4)C2)C3)CC1` gave Biofilm kill mix 12.
For Cc1ccc(NC(=O)CN(C)C(=O)/C=C/c2cccs2)cc1 the results were Biofilm kill mix 4.
Screening O=C1CCN(c2ncccc2[N+](=O)[O-])CC1 returned Biofilm kill mix 26.
For CCOC(=O)c1cc(C(=O)OCC)c(=O)[nH]c1C the results were Biofilm kill mix 10.
N#Cc1ccc(Cn2ccnc2C(=O)Nc2ccccc2)cc1 was read as Biofilm kill mix 10.
C/C(=N\NC(=O)Cc1cccn1C)c1ccc([N+](=O)[O-])cc1 was read as Biofilm kill mix 13.
For CC(NCc1ccc(S(N)(=O)=O)cc1)C(=O)Nc1cccc(Cl)c1 (configuration not stated) the results were Biofilm kill mix 22.
`S=C(NC12CC3CC(CC(C3)C1)C2)N1CCCC1` gave Biofilm kill mix 16.
`CC(C)OC(=O)c1cc(C(=O)c2cc(Cl)ccc2O)coc1=N` gave Biofilm kill mix 16.
For CCC(CC)C(=O)Nc1ccc(C)cc1O the results were Biofilm kill mix 11.
`COc1ccc(NC(=O)c2ccc3ccccc3c2)cc1NS(=O)(=O)c1ccc(F)cc1` gave Biofilm kill mix 9.
`CCc1ccc(C2=NN(CCC(=O)NC(C)CCc3ccccc3)C(=O)CC2)cc1` (configuration not stated) gave Biofilm kill mix 25.
`COC(=O)CC1C(=O)NCCN1C(=S)NC(=O)CCc1ccccc1` (configuration not stated) gave Biofilm kill mix 10.
For COc1ccc(CCN(C(=O)c2cccc(F)c2)C2CC(=O)N(c3ccccc3)C2=O)cc1 (configuration not stated) the results were Biofilm kill mix 13.
For Cc1ccc(C2c3c(oc4ccccc4c3=O)C(=O)N2c2nncs2)cc1 (configuration not stated) the results were Biofilm kill mix 22.
`O=C1Cc2ccccc2C(c2ccc(Cl)cc2Cl)N1` (configuration not stated) gave Biofilm kill mix 18.
For C=CCc1cccc2cc(C(=O)NNC(=O)CC#N)c(=O)oc12 the results were Biofilm kill mix 19.
Cc1ccc(/C=N/NS(=O)(=O)c2ccccc2)o1 was read as Biofilm kill mix 12.
Screening CN(C)c1ccc(N/C(N)=N/c2nc(C(F)(F)F)cc(C(F)(F)F)n2)cc1 returned Biofilm kill mix -8.
For Cc1ccc(S(=O)(=O)NNC2=NS(=O)(=O)c3ccccc32)c(C)c1 the results were Biofilm kill mix 15.
For c1nc2n(n1)C1=C(CCCC1)C1(CCCCC1)N2 the results were Biofilm kill mix 7.
For O=C(c1ccc(F)cc1)N1CCN2C(=O)c3ccccc3C12c1ccccc1 (configuration not stated) the results were Biofilm kill mix 22.
O=C(CCCc1nc2ccccc2s1)NCc1ccccc1F was read as Biofilm kill mix 11.
CC(C)[C@H](NC(=O)NCCC1=CCCCC1)C(=O)O was read as Biofilm kill mix 19.
Screening COC(CNC(=O)c1cccnc1)OC returned Biofilm kill mix 15.
Screening O=S(=O)(Nc1cccc(Cl)c1)c1ccc2oc(=S)[nH]c2c1 returned Biofilm kill mix 12.
Screening C[C@@H](C(=O)NCc1ccc(S(C)(=O)=O)cc1)[C@H]1C[C@]1(C)[C@H](NC(=O)OCc1ccccc1)c1ccccc1 returned Biofilm kill mix 12.
`Cc1ccc2nc(SC(C)C(=O)N3CCOCC3)[nH]c2c1` (configuration not stated) gave Biofilm kill mix 0.
`CC(=O)C1=C(C)NC(SCC(=O)Nc2nc3ccccc3s2)=C(C#N)C1c1ccc(Cl)cc1` (configuration not stated) gave Biofilm kill mix 22.
For O=C(COC(=O)CCSc1ccc(Cl)cc1)Nc1ccc(F)cc1 the results were Biofilm kill mix -6.
COc1ccc(C2c3[nH]c4ccccc4c3CCN2C(=O)c2cn3ccccc3n2)c(F)c1 (configuration not stated) was read as Biofilm kill mix 2.
Screening Cc1cc(N2CCCC(C(=O)Nc3cccc(Cl)c3)C2)n2ncnc2n1 (configuration not stated) returned Biofilm kill mix 24.
For COC(=O)c1ccc(/C=N/N2CCN(Cc3ccccc3Cl)CC2)cc1 the results were Biofilm kill mix 23.
For O=C(NN1C(=O)C2C3C=CC(C3)C2C1=O)c1ccncc1 (configuration not stated) the results were Biofilm kill mix 17.
COc1ccc(-c2cc(-c3ccc(C)cc3)nc(SCc3nnc(-c4ccccc4)o3)c2C#N)cc1OC was read as Biofilm kill mix 10.
Screening CCCn1nnnc1NCc1cc(Br)ccc1OC returned Biofilm kill mix 7.
`COc1cc(/C=C2\SC(=S)N(NS(=O)(=O)c3ccccc3)C2=O)ccc1O` gave Biofilm kill mix 20.
For Cc1cccc(-c2nnn(C/C(N)=N/O)n2)c1 the results were Biofilm kill mix 11.
COc1ccc(/C=C/C(=O)Oc2ccc(/C=N\NC(=O)c3ccc(F)cc3)cc2)cc1 was read as Biofilm kill mix 17.
For CC(=O)Nc1ccc(C2C(=O)c3ccccc3C2=O)cc1 the results were Biofilm kill mix 29.
For Cc1ccc(-n2cccn2)c([C@@H]2C[C@H]3CN(C)C(=O)[C@]34CCCN24)c1 the results were Biofilm kill mix 9.
Screening CCN(CC)S(=O)(=O)c1ccc(NC(=O)COc2nc3ccccc3nc2N2CCOCC2)cc1 returned Biofilm kill mix -2.
For CCn1ccnc1CN1CCc2c([nH]c3ccccc23)C1C(C)(C)C (configuration not stated) the results were Biofilm kill mix 7.
`CC(=O)Nc1ccc(O)c(-c2nc3ccccc3s2)c1` gave Biofilm kill mix 14.

Next part; the last three above are carried over.
Screening CCN(CC)S(=O)(=O)c1ccc(NC(=O)COc2nc3ccccc3nc2N2CCOCC2)cc1 returned Biofilm kill mix -2.
For CCn1ccnc1CN1CCc2c([nH]c3ccccc23)C1C(C)(C)C (configuration not stated) the results were Biofilm kill mix 7.
`CC(=O)Nc1ccc(O)c(-c2nc3ccccc3s2)c1` gave Biofilm kill mix 14.
Screening CCS(=O)(=O)c1ccc2oc(Nc3cccc(OC)c3)nc2c1 returned Biofilm kill mix -2.
COc1cc(/C=C2/CCCC(C(=O)C(F)(F)F)=C2O)ccc1O was read as Biofilm kill mix -35.
For COc1ccc(CN(C(=O)CO/N=C/c2ccccc2)c2ccccc2C(=O)O)cc1 the results were Biofilm kill mix 7.
Screening O=C(CSc1nnnn1-c1cccc2ccccc12)NC(C(=O)O)(c1ccccc1)c1ccccc1 returned Biofilm kill mix 13.
COc1ccc(NC(=O)CC2C(=O)N(c3cccc(OC)c3)C(=O)N2C(C)C)cc1 (configuration not stated) was read as Biofilm kill mix -1.
For CCN1CCN(CCNC(=O)c2ccc(/C=C3\Sc4ccccc4N(Cc4ccccc4F)C3=O)cc2)CC1 the results were Biofilm kill mix 15.
Screening CSc1ccc(Cl)c(C(=O)OCC(=O)Nc2ccccc2OC(F)F)c1 returned Biofilm kill mix 9.
Screening C=CCN1C(=O)/C(=C/c2ccc(O)cc2)S/C1=N/c1nccs1 returned Biofilm kill mix 5.
Screening CN(C)c1ccc(/C=N/NC(=O)c2ccccn2)cc1 returned Biofilm kill mix 21.
`O=C(Nc1ncn[nH]1)c1cccc(S(=O)(=O)N2CCOCC2)c1` gave Biofilm kill mix 4.
For O=C(Cc1noc2ccccc12)Nc1ccc(Cl)cc1 the results were Biofilm kill mix 13.
O=C(CN1CCN(C/C=C/c2ccccc2)CC1)NCc1ccc(Cl)cc1 was read as Biofilm kill mix 21.
`CCOC(=O)N1CCN(c2ccc([N+](=O)[O-])cc2F)CC1C` (configuration not stated) gave Biofilm kill mix 16.
CCOC(=O)CSc1nc(-c2ccccc2)ns1 was read as Biofilm kill mix 11.
COc1ccc(C2C3=C(CC(C)(C)CC3=O)Nc3nc(C)nn32)cc1OC (configuration not stated) was read as Biofilm kill mix 9.
Screening Cc1oc2ccc(Br)cc2c(=O)c1-c1nn[nH]n1 returned Biofilm kill mix 16.
Screening Cc1ccc(-n2c(-c3ccccc3)c[nH]c2=S)cc1 returned Biofilm kill mix -9.
For Cc1cc(C)cc(C(=O)NCC(=O)OCC(=O)NCc2ccco2)c1 the results were Biofilm kill mix -3.
For O=C(COC(=O)C1CCN(S(=O)(=O)c2cccs2)CC1)c1ccccc1 the results were Biofilm kill mix 3.
Cc1cccn2c(=O)c3cc(S(=O)(=O)c4ccccc4)c(=N)n(CC4CCCO4)c3nc12 (configuration not stated) was read as Biofilm kill mix 21.
Screening COc1cc2c(cc1NC(=O)CSc1nc3cc(Cl)ccc3s1)oc1ccccc12 returned Biofilm kill mix 16.
Screening CN(C)CCCn1c(SCC(=O)N2CC(=O)Nc3ccccc32)nc2ccccc2c1=O returned Biofilm kill mix -4.
CCOC(=O)c1c(O)c(O)c(C(=O)OCC)n1-c1ccccc1 was read as Biofilm kill mix 20.
COc1ccc(-n2c(C)nc(=O)c(-c3ccccc3)c2C)cc1 was read as Biofilm kill mix 6.
Nc1c(C(=O)N/N=C/c2ccccc2Cl)oc2nc(-c3ccccc3)cc(-c3ccco3)c12 was read as Biofilm kill mix 21.
For COc1cccc(C(=O)Nc2ccc(-n3nncc3C(C)(C)C)cc2)c1 the results were Biofilm kill mix 10.
`Fc1cc(F)cc(NC(=S)NCCCN2CCOCC2)c1` gave Biofilm kill mix 14.
For CCOC(=O)Cc1nn(Cc2nc(-c3ccc(C)cc3)cs2)c(=O)c2ccccc12 the results were Biofilm kill mix 9.
Cc1ccccc1NC(=O)Nc1ccccc1N1CCCCC1 was read as Biofilm kill mix 16.
For CN=C1S/C(=C/c2cn(CC(=O)OC)c3ccccc23)C(=O)N1C the results were Biofilm kill mix 24.
`Cc1ccc(-n2c(CNc3ccc(C)c(Cl)c3)n[nH]c2=S)cc1` gave Biofilm kill mix -11.
Screening COc1cccc(/C=N/NC(=O)CCCc2ccc(OC)c(C)c2)c1 returned Biofilm kill mix 23.
Screening CCOC(=O)N/N=C/c1cn(CCCOc2ccc(C)cc2)c2ccccc12 returned Biofilm kill mix 1.
For COc1cccc(CN2CCNC(=O)C2CC(=O)NCCCn2ccnc2)c1 (configuration not stated) the results were Biofilm kill mix 3.
`CCn1nnnc1NCc1cccc(Cl)c1` gave Biofilm kill mix 11.
For Cn1c(=NC(=O)c2ccc3c(c2)OCCO3)sc2cc(S(C)(=O)=O)ccc21 the results were Biofilm kill mix 10.
`N=C1S/C(=C\c2ccccc2)C(=O)N1c1ccc(F)cc1` gave Biofilm kill mix 9.
`COC(=O)C1=C(C)N(C)C(=S)NC1c1cc(OC)ccc1OC` (configuration not stated) gave Biofilm kill mix 18.

By substructure: the compounds so far with an NH in an aromatic ring (13)
CCn1c(-c2nn(-c3ccccc3)ccc2=O)n[nH]c1=S was read as Biofilm kill mix 3.
For COc1ccc(CC(=O)n2[nH]c(=O)cc(C)c2=O)cc1OC the results were Biofilm kill mix 22.
Screening O=C(NC1CC1)C1=C[C@@H](c2c[nH]c3ccccc23)C[C@@H](OCc2ccc(CO)cc2)O1 returned Biofilm kill mix 16.
Screening CCOC(=O)CSc1n[nH]c(NC(=O)CC)n1 returned Biofilm kill mix 12.
For CCOC(=O)c1cc(C(=O)OCC)c(=O)[nH]c1C the results were Biofilm kill mix 10.
Screening O=S(=O)(Nc1cccc(Cl)c1)c1ccc2oc(=S)[nH]c2c1 returned Biofilm kill mix 12.
`Cc1ccc2nc(SC(C)C(=O)N3CCOCC3)[nH]c2c1` (configuration not stated) gave Biofilm kill mix 0.
COc1ccc(C2c3[nH]c4ccccc4c3CCN2C(=O)c2cn3ccccc3n2)c(F)c1 (configuration not stated) was read as Biofilm kill mix 2.
For CCn1ccnc1CN1CCc2c([nH]c3ccccc23)C1C(C)(C)C (configuration not stated) the results were Biofilm kill mix 7.
`O=C(Nc1ncn[nH]1)c1cccc(S(=O)(=O)N2CCOCC2)c1` gave Biofilm kill mix 4.
Screening Cc1oc2ccc(Br)cc2c(=O)c1-c1nn[nH]n1 returned Biofilm kill mix 16.
Screening Cc1ccc(-n2c(-c3ccccc3)c[nH]c2=S)cc1 returned Biofilm kill mix -9.
`Cc1ccc(-n2c(CNc3ccc(C)c(Cl)c3)n[nH]c2=S)cc1` gave Biofilm kill mix -11.
